HCMV NEC inh: inhibitors of HCMV UL50-UL53 nuclear egress complex interaction | HTRF UL50-UL53 interaction, normalized percent inhibition | inhibition, % (no concentration beside the values) | actives 0.15% (n = 190,000);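 active means both replicates at 50% or more, plus weaker picks with an unusually low signal ratio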;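 further: stock transfer was 100 nL into about 20 µL; 0% = negative control wells and 100% = wells with untagged competitor protein; inactives centre near -12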
GIV Gai3 FP: GIV-Galpha-i interaction inhibition | P08753 | Galpha-i3/FITC-GIV peptide fluorescence polarization, 90 min; active compounds read low; scaled: aluminum fluoride 0%, vehicle 100% | percent of control (FP), % (concentration not given with the values) | actives 0.42% (n = 210,000) | AID 1224905;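 active means replicate mean at 85% of control or lower, very high polarization wells dropped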;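 further: wells of about 15 µL received 100 nL stock; the first replicate is given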
Target sequence (P08753 whole entry, looked up): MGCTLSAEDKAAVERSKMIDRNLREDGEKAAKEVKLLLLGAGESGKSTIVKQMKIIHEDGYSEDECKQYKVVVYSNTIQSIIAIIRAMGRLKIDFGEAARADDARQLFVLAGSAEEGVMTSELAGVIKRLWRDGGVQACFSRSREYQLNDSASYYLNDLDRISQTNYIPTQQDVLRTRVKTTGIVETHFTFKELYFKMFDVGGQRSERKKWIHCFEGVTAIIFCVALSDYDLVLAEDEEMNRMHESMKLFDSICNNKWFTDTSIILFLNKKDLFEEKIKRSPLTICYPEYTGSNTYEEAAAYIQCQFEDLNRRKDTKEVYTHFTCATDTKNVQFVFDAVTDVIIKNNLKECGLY
Sa growth inh: inhibitors of Staphylococcus aureus growth at 42 °C; S. aureus RN4220 growth, OD600, 20 h; active compounds read low; relative growth, % (concentration not given with the values); actives 0.53% (n = 170,000); AID 720641;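 active means growth at 42 °C up to 50% and 20 or more points under that at 30 °C, or under 10% at both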;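 further: 300 nL library stock went into each well; scaled to the means of positive and negative controls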
Sa growth inh second temp: further read-out of Sa growth inh, marked with its call; relative growth, %; measured here: growth at 30 °C;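 optical density after 20 h as mean of two plates; 100% = untreated growth and lower means inhibition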
* marks the source's active call; other numbers are inactive results; x = no result given.

Screens by letter: A = HCMV NEC inh; B = GIV Gai3 FP; C = Sa growth inh; D = Sa growth inh second temp
> O=c1ccc(-c2ccc(S(=O)(=O)N3CCCc4ccccc43)s2)n[nH]1
  A: -10; B: 100; C: 92; D: 96

> Cc1cc2ccccn2c1C(=O)c1cccs1
  A: -133; B: x; C: 98; D: 68

> Cc1nnc(-c2cc3ccccc3n2CC(=O)Nc2ccc(C(N)=O)cc2)o1
  A: 10; B: 104; C: x; D: x

> CCN(CC(=O)c1ccco1)C1CCCCC1
  A: 2; B: x; C: 90; D: 94

> N#CCN1CCN(c2ccc(C(F)(F)F)cn2)CC1
  A: 1; B: 103; C: 115; D: 90

> Cc1ccc(N2C(=O)CC(Sc3nc(C)cc(C(F)(F)F)c3C#N)C2=O)cc1 (centres undefined)
  A: -15; B: 103; C: x; D: x

> O=C(COc1ccc(Br)cc1)Nc1cccc2cccnc12
  A: x; B: 103; C: 102; D: 87

> O=C1CC(Cc2ccccc2)C(=O)N1c1ccncc1 (centres undefined)
  A: -21; B: 106; C: 88; D: 86

> COc1ccc(C2C(=O)N(C3CCCCCC3)CC(=O)N2C2CCCCC2)cc1 (centres undefined)
  A: -8; B: 104; C: 95; D: 90

> CCOC(=O)N1CCN(C(=O)CSc2nc3c(c(=O)n2Cc2ccccc2)SC(C)C3)CC1 (centres undefined)
  A: x; B: 98; C: 102; D: 87

> Nc1c2cnc(N3CCCC3)nc2nc(=O)n1-c1ccc(Cl)cc1
  A: -10; B: 99; C: 103; D: 86

> CCOC(=O)C1=C(SCc2ccccc2)NC(=O)C(C#N)C12CCCCC2 (centres undefined)
  A: -6; B: x; C: 85; D: 82

> CSc1ncc(C(=O)Nc2nc3ccccc3s2)cn1
  A: -14; B: 102; C: 127; D: 93

> Cc1cc(NC2=CC(=O)CCC2)n(-c2cc(C(F)(F)F)ccc2Cl)n1
  A: -18; B: x; C: 77; D: 92

> CC1CCN(CC(=O)Nc2ccccc2C#N)CC1
  A: -30; B: 104; C: 111; D: 97

> C=CCNC(=S)N1CCN(C2CCCCC2)CC1
  A: 2; B: 101; C: 98; D: 100

> CCc1nc2ccccc2c(=O)n1NC(=O)c1c(O)c2ccccc2n(CC)c1=O
  A: x; B: 95; C: 96; D: 63

> CCC(NC(=O)Nc1ccccc1C(=O)OC)(C(F)(F)F)C(F)(F)F
  A: -14; B: x; C: 85; D: 88

> COc1ccc(OCc2ccc(-c3nc(C#N)c(NCc4ccc(F)cc4)o3)o2)cc1
  A: -25; B: 101; C: 90; D: 82

> COc1ccc(OC)c(NC(=O)CN2C(=O)C(C)(C)c3cc(S(=O)(=O)N4CCCC4)ccc32)c1
  A: -29; B: 102; C: x; D: x

> CCOc1ccc(NC(=O)c2cccn2-c2cccnc2)cc1
  A: -32; B: 104; C: x; D: x

> O=C(NC1CCCCC1)C1CCCN1C(=O)NCc1ccccc1 (centres undefined)
  A: -6; B: 103; C: 85; D: 104

> COc1cccc(C2CCCC/C2=N/O)c1 (centres undefined)
  A: 1; B: 105; C: 104; D: 103

> COc1ccc2c(c1)c1c(c(=O)n(-c3cc(Cl)ccc3C)c(=O)n1CC(N)=O)n2C
  A: -39; B: 107; C: 94; D: 95

> O=c1nc(SCc2ccccc2)c2c(n1C1CCCCC1)CCC2
  A: -16; B: 106; C: x; D: x

Sorted by SMILES length (low to high): some entries from above.
Screens by letter: A = HCMV NEC inh; B = GIV Gai3 FP; C = Sa growth inh; D = Sa growth inh second temp
> CC1CCN(CC(=O)Nc2ccccc2C#N)CC1
  A: -30; B: 104; C: 111; D: 97

> O=c1nc(SCc2ccccc2)c2c(n1C1CCCCC1)CCC2
  A: -16; B: 106; C: x; D: x

> O=c1ccc(-c2ccc(S(=O)(=O)N3CCCc4ccccc43)s2)n[nH]1
  A: -10; B: 100; C: 92; D: 96

> CCc1nc2ccccc2c(=O)n1NC(=O)c1c(O)c2ccccc2n(CC)c1=O
  A: x; B: 95; C: 96; D: 63

Additional entries
Screens by letter: A = HCMV NEC inh; B = GIV Gai3 FP; C = Sa growth inh; D = Sa growth inh second temp
> COc1ccc(OC)c(-c2noc(N3CCN(c4ccc(Cl)cc4)CC3)n2)c1
  A: x; B: 104; C: 97; D: 76

> CCO/C=C1/C(=O)NC(=O)c2ccccc21
  A: 98*; B: x; C: 87; D: 64

> Cn1cnc2sc3c(c2c1=O)CCCC3
  A: 6; B: 104; C: 97; D: 99

> CNC(=O)CSc1nc2cc3c(cc2cc1C)OCCO3
  A: -23; B: 98; C: 124; D: 96

> COc1cccc(-n2cc(C(=O)NC3CCCC3)c3ccccc3c2=O)c1
  A: x; B: 101; C: 67; D: 76

> CCOC(=O)c1cc(C(=O)OCC)n(C)n1
  A: -8; B: x; C: 90; D: 88

> O/N=C(/C(=N/O)c1ccccc1)c1ccccc1
  A: -21; B: 108; C: 95; D: 85

> Cc1cc(F)ccc1NC(=O)C(C(C)C)N1Cc2ccccc2C1=O (centres undefined)
  A: x; B: 105; C: 97; D: 99

> Fc1ccc2[nH]c3nc(=S)[nH]nc3c2c1
  A: -86; B: 103; C: 85; D: 73

> CCOC(=O)C1=C(CN2CCN(c3ccccc3OC)CC2)NC(=O)NC1c1ccccc1 (centres undefined)
  A: -36; B: 102; C: 105; D: 83

> Cc1cccc(-n2nnc(C(=O)Nc3ccc(S(N)(=O)=O)cc3)c2C)c1
  A: -31; B: 100; C: x; D: x

> COc1ccc(C2CC(c3ccc(Br)cc3)=NN2S(=O)(=O)c2ccccc2)cc1OC (centres undefined)
  A: -18; B: 103; C: x; D: x

> CC1CCN(S(=O)(=O)c2ccc3[nH]cc(C(=O)N4CCN(c5ccc(F)cc5)CC4)c(=O)c3c2)CC1
  A: 4; B: 106; C: 89; D: 94

> NC(=O)C1(N2CCCCC2)CCN(C(=O)c2ccc(Cn3c(=S)[nH]c4cc5c(cc4c3=O)OCO5)cc2)CC1
  A: -28; B: 107; C: 101; D: 80

> CCCN(CC1CC1)c1cccc(C(=O)O)n1
  A: -27; B: x; C: 104; D: 84

> CC1CN(CCn2cnc3c(N)ncnc32)CC(C)O1 (centres undefined)
  A: -22; B: 105; C: 91; D: 79

> O=C(CCCn1ncn2c(cc3occc32)c1=O)NC1CCCCCC1
  A: -26; B: 100; C: 79; D: 82

> CCn1c(=O)c(-c2noc(C(=O)N3CCN(C)CC3)n2)nn(-c2ccc(F)cc2)c1=O
  A: -110; B: 103; C: x; D: x

> Cc1noc(C)c1S(=O)(=O)N(CC(=O)NCCc1ccc(Cl)cc1)c1ccc(C(C)C)cc1
  A: -12; B: 106; C: 109; D: 88

> COc1ccc(-c2cc(-c3ccccc3)nc3c(C(=O)Nc4ccc(F)cc4)cnn23)cc1
  A: -25; B: 97; C: x; D: x

> O=C1NCCc2c(OC3CCCC3)cccc21
  A: -18; B: 100; C: 97; D: 85

> S=C(Nc1ccc2[nH]ccc2c1)NC1CC2C=CC1C2 (centres undefined)
  A: 2; B: 110; C: 105; D: 95

> CC(C)N1C(=O)CCNc2ccccc21
  A: -3; B: x; C: 101; D: 95

> CCCc1nnc(NC(=O)c2cc(=O)c3ccccc3o2)s1
  A: -47; B: 102; C: 99; D: 83

> O=C(CSc1nc2sc3c(c2c(=O)n1-c1ccccc1)CCCC3)NCCCN1CCOCC1
  A: -10; B: 105; C: x; D: x

> O=C(NC(Cc1c[nH]c2ccccc12)C(=O)O)/C(=C\c1ccccc1)NC(=O)c1ccccc1 (centres undefined)
  A: -7; B: 99; C: x; D: x

> O=C(O)C1=C(c2ccccc2)OCCS1
  A: x; B: 104; C: 122; D: 88

> CCn1c(=O)n(CC)c2cc(N3CCCC3)c(NC(=O)Cc3ccccc3)cc21
  A: -2; B: 99; C: 88; D: 90

> COc1ccc2c(c1)c1c(c(=O)n(Cc3ccccc3)c(=O)n1CC(=O)Nc1ccc(C)cc1C)n2C
  A: x; B: 109; C: 101; D: 86

> NC(=O)c1ccccc1NC(=O)c1cccc(Br)c1
  A: -6; B: x; C: 93; D: 88

> COc1ccc(S(N)(=O)=O)cc1C(=O)NCc1ccc2c(c1)OCO2
  A: -6; B: x; C: 92; D: 98

> COC(=O)CCN(C(=O)c1c(C)oc2ncnc(N3CCOCC3)c12)c1ccccc1
  A: x; B: 103; C: 98; D: 99

> CN(CC(=O)NCC1CCCO1)S(=O)(=O)c1ccc2c(c1)CCCC(=O)N2 (centres undefined)
  A: -16; B: 104; C: x; D: x

> CCOC(=O)c1c(CSc2ccccc2)n(-c2ccccc2)c2ccc(O)c(CN(C)C)c12
  A: 15; B: 106; C: x; D: x

> COC(=O)CNS(=O)(=O)c1cccs1
  A: -28; B: x; C: 83; D: 89

> O=C(OCc1cccnc1)C1CCCN(C2=NS(=O)(=O)c3ccccc32)C1 (centres undefined)
  A: -21; B: x; C: 96; D: 94

> Cc1ccc(Cl)cc1N1CCN(C(=O)CCC(=O)N2CCSc3ccccc32)CC1
  A: -44; B: 101; C: x; D: x

> COc1ccc(-n2c(CC3C(=O)N(C)c4ccc(C)cc43)nc3ccccc3c2=O)cc1 (centres undefined)
  A: -4; B: 100; C: 112; D: 82

> Cc1noc(Cn2c(=O)c3ccccc3n(CC(=O)Nc3cccc(Cl)c3)c2=O)n1
  A: -4; B: 108; C: x; D: x

> CN(C)S(=O)(=O)c1ccc(C(=O)Nc2nnc(SCC(=O)NCC3CCCO3)s2)cc1 (centres undefined)
  A: -9; B: 110; C: 97; D: 82

> FC(F)(F)COc1nc(N2CCCCC2)nc(N(c2ccccc2)c2ccccc2)n1
  A: x; B: 102; C: 98; D: 75

> O=C(O)c1ccnc(N2CCCC2)c1
  A: -38; B: 103; C: 89; D: 83

> COC(=O)c1sccc1-n1cc(C#N)c(=O)n(C)c1=O
  A: -10; B: 110; C: 107; D: 93

> CNC(=O)Cn1ncc2c(C)n(Cc3ccccc3)c(C)c2c1=O
  A: x; B: 103; C: 104; D: 89

> NC[C@H]1O[C@H](O[C@H]2[C@H](O)[C@@H](O[C@H]3O[C@H](CO)[C@@H](O)[C@H](N)[C@H]3O)[C@H](N)C[C@@H]2N)[C@H](N)[C@@H](O)[C@@H]1O
  A: -13; B: x; C: -0.2*; D: 0.1*

> CCCCc1nc(Cl)c(C#N)c2c1COC(C)(C)C2
  A: -1; B: 96; C: 95; D: 108

> Cc1nc2ccccc2nc1SCC(=O)NC1CCCC(C)C1C (centres undefined)
  A: -30; B: x; C: 115; D: 89

> O=C(/C=C/c1ccco1)NC(=S)n1cnc2ccccc21
  A: -10; B: 106; C: 115; D: 60

> CCN1C(=O)C2ON(c3ccc(Cl)cc3)C(c3ccccc3)C2C1=O (centres undefined)
  A: -11; B: 101; C: 91; D: 86

> C=CCN(Cc1nc(-c2cccc(C)c2)no1)C(=O)Nc1ccc(Cl)cc1
  A: -16; B: 103; C: x; D: x

(listing goes on)
Screens by letter: A = HCMV NEC inh; B = GIV Gai3 FP; C = Sa growth inh; D = Sa growth inh second temp
> C=CCNC(=O)c1ccc(S(=O)(=O)N2CCC(C)CC2)cc1
  A: -11; B: x; C: 91; D: 93

> Cc1ccc(NC(=O)Cn2c3ccccc3n3c(=O)cc(-c4ccccc4)nc23)cc1
  A: -27; B: 98; C: x; D: x

> COc1ccc(NC(=O)Cn2c(=O)n(CCCC(=O)NCCc3ccc(C)cc3)c(=O)c3ccccc32)cc1Cl
  A: -12; B: 102; C: 95; D: 87

> Cc1ccc2cc(NC(=O)c3cc(C)n(C)n3)ccc2n1
  A: -41; B: 106; C: 101; D: 91

> CCCn1nc(NS(=O)(=O)c2ccccc2)c2cc3ccccc3nc21
  A: -43; B: 103; C: 90; D: 85

> CC(C)n1c(=S)[nH]c2ccccc21
  A: -11; B: 111; C: 93; D: 96

> C[N+]1(C/C=C2/COCO2)CCCCC1
  A: -6; B: x; C: 104; D: 109

> CCN(CC)c1ccc(NS(=O)(=O)c2ccc(-c3cnc(C4CC4)o3)cc2)c(C)c1
  A: x; B: 95; C: 95; D: 84

> O=C(CS(=O)(=O)Cc1ccccc1)Nc1ccc2c(c1)OCO2
  A: -2; B: 108; C: 126; D: 77

> COc1ccc(Cn2ccnc2SCC(=O)Nc2cc(C(F)(F)F)ccc2Cl)cc1
  A: x; B: 103; C: 119; D: 87

> Cc1cc(C=Nc2ccccc2)c(C)n1-c1ccccc1
  A: -10; B: x; C: 85; D: 94

> O=C(Cc1ccc(Cl)cc1Cl)NCc1cccnc1
  A: 2; B: x; C: 120; D: 94

> CSc1n[nH]c(-c2ccncc2)n1
  A: -12; B: 100; C: 100; D: 99

> O=C(CSc1nnc(-c2ccncc2)o1)NCc1ccc2c(c1)OCO2
  A: -14; B: 101; C: x; D: x

> Cc1cccc(C(=O)OCCN2CCCCC2)c1
  A: -13; B: 102; C: 105; D: 84

> CN1CCN(C(=O)Cn2ncc3c4ccccc4n(Cc4ccc(Cl)cc4)c3c2=O)CC1
  A: -26; B: 127; C: 98; D: 76

> FC(F)(F)c1ccc(N2CCN(Cc3cn[nH]c3-c3ccccc3)CC2)nc1
  A: -5; B: 106; C: 100; D: 90

> CCCNC(=O)c1ccccc1OCc1nc(-c2ccccc2)no1
  A: -31; B: 107; C: x; D: x

> Cc1ccc(OCC(=O)Nc2ccc(-c3nc4ccc(C)cc4o3)cc2)cc1
  A: -30; B: 109; C: 81; D: 91

> O=C1CC(c2ccccc2)c2cc(Cl)ccc2O1 (centres undefined)
  A: x; B: 104; C: 91; D: 79

> CN(C)c1nc2ncnc(SCC(=O)Nc3ccc(F)cc3F)c2s1
  A: -21; B: 110; C: x; D: x

> O=C(CN1CCCC1)Nc1cccc(Cl)c1Cl
  A: 3; B: 104; C: 97; D: 97

> COc1ccc(N2CCN(CN3C(=O)NC(c4ccccc4)(c4ccccc4)C3=O)CC2)cc1
  A: -10; B: x; C: 96; D: 89

Screening data (PubChem)
